# Source: PubChem (Fisher Drug Discovery Resource Center)
# NPYLR7 ag = mosquito NPYLR7 agonism; HEK293T NPYLR7/Galpha15, GCaMP6s calcium fluorescence; activation, % at 10 µM; 0.15% of 270,000 active; in the data active means activation above about 40%;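 further: 0% = vehicle and 100% = reference agonist at the receptor; some compounds past the cut are filed as inactive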
# NPYLR7 ag max-min = recorded beside NPYLR7 ag, whose call it bears; activation, %; measured here: Max-Min RFU normalised activation; some inactives read as strong as hits;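 span of the calcium signal over five minutes; 0% = vehicle and 100% = native peptide agonist; compound fluorescence can raise it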
# * hit, by the source's call; & = joins results of further samples. The list is partial; the hit share may differ from the screen's.
SMILES,NPYLR7 ag,NPYLR7 ag max-min
CCCS(=O)(=O)NC1CC(=O)N(Cc2ccccc2C(F)(F)F)C1 (stereo not given),-4,-4
COCC(=O)N1CCCN(C(=O)CN2CCc3sccc3C2c2ccccc2C)CC1 (stereo not given),13,6
CCCNC(=O)Cn1nc2c(c1NC(=O)c1cccc(F)c1)CSC2,-7,-12
CC(C)c1noc(CN(C)C(=O)C(C)n2cc(Cl)cn2)n1 (stereo not given),4,3
Cc1ccc(N2C(=O)C(c3c(C(C)C)[nH]n(-c4ccc(F)cc4)c3=O)=C([n+]3ccccc3)C2=O)cc1,6,8
C/C(=N\NC(=O)C1=NNC(c2ccccc2)(c2ccccc2)C1)c1ccc(Cl)cc1,22,3
Cc1ccc2ncn(C3CCN(C(=O)CCOc4ccccc4)CC3)c2c1,3,1
COc1cc(C#N)ccc1OCC(=O)NC1CCCc2ccccc21 (stereo not given),6,4
O=c1[nH]n(-c2ccc([N+](=O)[O-])cc2)c(=O)c2ccccc12,-4,-5
CCn1ccnc1CN(C)Cc1nc(Cc2ccccc2Cl)no1,11,5
Cc1ccc(C)n1-c1sccc1C(=O)Nc1ccc(=O)n(C)c1,-7,-13
CC(C)CCn1c(=O)[nH]c(=O)c2c3c(cnc21)C(=O)CC(c1ccco1)C3 (stereo not given),-2,16
CC(=O)Nc1cncc(-c2ccccc2C(C)=O)n1,3,1
Cc1cc(C)nc(N=C(N)N2CCc3ccccc3C2)n1,-6,-13
Cc1cccc(-n2c(SCc3ccc(C(=O)N4CCN(C)CC4)cc3)nnc2-c2ccccc2Cl)c1,25,28
COc1ccc(CN2CC(O)CN(C(=O)OCc3ccccc3)CC2=O)cc1 (stereo not given),26,33
O=S(=O)(c1ccccc1NCc1ccccn1)C(F)(F)F,3,0
COc1ccc(CCN(C)S(=O)(=O)c2ccc(OC)c(N3CCN(S(=O)(=O)c4cccc(Cl)c4Cl)CC3)c2)cc1OC,29,14
CCOC1N=C(C#N)C(C#N)N(CC)C1OCC (stereo not given),-4,-8
COc1ccc(Nc2nc(N3CCN(c4ccc(OC)cc4)CC3)nc3[nH]ncc23)cc1,4,3
O=C(CS(=O)(=O)c1ccc(F)cc1)Nc1ccccc1-c1nc2ccccc2s1,8,0
O=c1oc2ccccc2cc1-c1nnc(Nc2cc([N+](=O)[O-])ccc2F)s1,2,6
COCC(=O)NCC1c2cc(OC)c(OC)cc2CCN1C(=O)Nc1ccccc1F (stereo not given),28,32
S=C1NCN(CCc2cccs2)CN1,16,12
COc1ccc(C2SC(C)C(=O)N2CCNC(C)C)cc1OC (stereo not given),-1,-8

# Next part
SMILES,NPYLR7 ag,NPYLR7 ag max-min
Cc1ccc(Cn2c(CCNC=O)nc3ccccc32)cc1,2,10
CCc1ccc(S(=O)(=O)NCc2nnnn2-c2ccc(F)c(F)c2)s1,3,2
CCS(=O)(=O)NC(=O)C1(C)CCN1C(=O)C1(c2ccc(Cl)cc2)CC1 (stereo not given),1,-1
O=C(C=Cc1ccccc1OC(F)F)c1ccc(F)cc1,-2,2
O=C(c1ccnc(Cl)c1)N1CCN(c2nccc(-c3ccc4c(c3)OCO4)n2)CC1,1,15
COc1cc(NC(=O)c2cc(-c3ccc(F)cc3)nc3onc(C)c23)cc(OC)c1OC,13,17
CCOC(=O)c1ccc(N=Nc2c(C)[nH]n(-c3ccccc3)c2=O)cc1,-8,-11
C=CCN(CC(=O)N(Cc1ccccc1)Cc1ccc(C)o1)C(=O)Nc1ccc(OC)cc1,-4,-2
CCn1cc(NC(=O)N(C)C2Cc3ccccc3C2)cn1,2,0
CC1CCCC(NC(=O)COc2ccccc2C(N)=O)C1C (stereo not given),-7,15
COc1cc2c(cc1OC)C(c1c[nH]c3ccccc13)NCC2 (stereo not given),2,0
COc1ccc(-c2c(O)c3c(OC)c4c(cc3oc2=O)OC(C)(C)C=C4)cc1,-12,-16
CC(NC(=O)Cc1ccccc1Br)C(=O)N(C)C (stereo not given),4,1
COc1ccc(-c2cc(N)nc3[nH]ccc23)c2cccnc12,1,20
CC(NC(=O)C1CCCO1)c1ccc(Cl)c(Cl)c1 (stereo not given),13,7
COCCNC(=O)c1ccccc1N1CCC(NC(=O)c2ccccc2OC)CC1,-1,4
Cc1ccc(C)c(S(=O)(=O)N2CCN(C(=O)NCc3cccc(NS(C)(=O)=O)c3)CC2)c1,8,9
CS(=O)(=O)c1ccc(C(=O)N(Cc2ccccn2)c2nc3ccccc3s2)cc1,-2,-5
Cc1nc(NCc2ccccc2)nc(Nc2ccccc2)c1[N+](=O)[O-],-1,-2
CCSc1nc(C2CC2)cc(-c2ccc(OC)cc2)c1C#N,5,5
Cc1ccc(S(=O)(=O)N2CCSC2C)cc1 (stereo not given),4,1
COc1ccc(-c2nn(-c3ccccc3)cc2CN(C)CCc2c(C)n[nH]c2C)c(F)c1,6,2
O=C(CSCc1cccc2c1OCCO2)NC1CCCC1,1&9,-1&7
CCn1c(NC2CC(=O)N(c3ccccc3I)C2=O)nc2ccccc21 (stereo not given),-2,-1
Cc1nc(NC(C)c2cccnc2)c2c3c(sc2n1)CCC3 (stereo not given),-3,31

# Structures from the list above with a CF3 group, in the order listed:
SMILES,NPYLR7 ag,NPYLR7 ag max-min
CCCS(=O)(=O)NC1CC(=O)N(Cc2ccccc2C(F)(F)F)C1 (stereo not given),-4,-4
O=S(=O)(c1ccccc1NCc1ccccn1)C(F)(F)F,3,0

# (continued)
SMILES,NPYLR7 ag,NPYLR7 ag max-min
COc1ccc(-n2nc(C(=O)O)c(=O)n(Cc3cccc(C(F)(F)F)c3)c2=O)cc1,0,6
Cc1cc(C(=O)N2CCc3ccccc3C2)nc2cc(C(C)(C)C)nn12,-9,1
Cc1cccc(NC(=O)CCC2CCN(C(=O)CCc3ccccn3)CC2)c1,11,7
CCCCN(CC(=O)N(CCc1c[nH]c2ccccc12)Cc1ccccc1)C(=O)Nc1ccccc1C(F)(F)F,0,0
O=C(CNc1ccc2ccccc2c1)NNC1=NCCC1,2,1
CCN(CC)C(=O)CN(C)C(=O)c1[nH]c(C)c(C(C)=O)c1C,0,0
Cc1cc(NC(=O)N(C)Cc2nccn2C(F)F)no1,5,4
COc1ccc(C2CC(=O)c3cnn(-c4nc5ccccc5[nH]4)c3C2)c(OC)c1 (stereo not given),2,0
Cn1ccsc1=NC(=O)CCN1c2ccccc2Sc2ccccc21,1,1
Cc1ccc(C(=O)Nc2c(N)nc(SCC(=O)N3CCCc4ccccc43)[nH]c2=O)cc1,-2,-2
CC1CCN(C(=O)CSc2nc3c([nH]c4ccccc43)c(=O)n2C)CC1,2,26
CCN(CC(=O)Nc1c(F)cccc1F)C(=O)C1CCN(C(=O)c2ccc(Cl)cc2)CC1,8,5
CCc1nc2c(s1)C(O)CCC2 (stereo not given),5,-10
COc1ccc2nc(-c3ccc(C)c(NC(=O)C4CCCC4)c3)cn2n1,-11,-15
O=[N+]([O-])/C=C/c1cccn1-c1ccc(Br)cc1,-1,10
O=c1ccc(-c2cccnc2)nn1CCNS(=O)(=O)c1ccccc1,6,-4
COc1ccc(Nc2cc3c(cn2)cc(-c2ccc(C(=O)N(C)C)cc2)n3Cc2ccccc2)c(OC)c1,-12,-16
CCCn1ncc(C(=O)N(Cc2nccn2C)C2CC2)c1C,9,5
C=C(C)Cn1c(N2CCN(Cc3ccccc3C)CC2)nc2c1c(=O)[nH]c(=O)n2C,23,24
Cc1cc(C(=O)CN2C(=O)C(=O)N(Cc3ccco3)C2=O)c(C)n1C1CC1,0,8
Oc1cccc(-c2nc3c(Nc4ccccc4)nccc3[nH]2)c1,-4,-10
CCCCCCCn1c(CN2CCCC(C)C2)nc2c1c(=O)n(C)c(=O)n2C (stereo not given),6,-2
CC(=N/N=C\C=C\c1ccccc1)C1=C(O)c2ccccc2C1=O,0,-1
COC(=O)c1ccc(Cn2nc(-c3cccc(OC)c3)c3sc(C)nc3c2=O)cc1,0,-1
CN(C)c1ncccc1CNC(=O)Nc1cccc(F)c1,-4,-5

# Three records drawn at random from those above:
SMILES,NPYLR7 ag,NPYLR7 ag max-min
O=[N+]([O-])/C=C/c1cccn1-c1ccc(Br)cc1,-1,10
Cc1cccc(NC(=O)CCC2CCN(C(=O)CCc3ccccn3)CC2)c1,11,7
Cc1ccc(C(=O)Nc2c(N)nc(SCC(=O)N3CCCc4ccccc43)[nH]c2=O)cc1,-2,-2

# Back to the main list, starting 2 compounds before the break.
SMILES,NPYLR7 ag,NPYLR7 ag max-min
COC(=O)c1ccc(Cn2nc(-c3cccc(OC)c3)c3sc(C)nc3c2=O)cc1,0,-1
CN(C)c1ncccc1CNC(=O)Nc1cccc(F)c1,-4,-5
COCCCNC(=O)C(NC(=O)C1CC1)C1CCN(C(=O)c2ccc(F)cc2)CC1 (stereo not given),-5,5
O=C(NC(c1cccnc1)c1ccc2c(c1)OCO2)C1CCN(CCOc2ccc(Cl)cc2)CC1 (stereo not given),12,4
CCCCN(C(=O)CSc1nnnn1C)C1CCS(=O)(=O)C1 (stereo not given),3,-4
O=C(O)C1CN(C(=O)C(c2ccccc2)c2ccccc2)CCN1 (stereo not given),6,-4
Cc1cc(C(=O)N2CCC2(C)C(=O)NS(=O)(=O)c2ccc(F)cc2F)nn1C (stereo not given),1,3
O=c1c2cc3c(cc2nc2sc(Nc4ccc(F)cc4F)nn12)OCO3,9,5
COc1ccc(S(=O)(=O)Nc2ccc(-c3c(-c4cccc(C)c4)[nH]n(-c4ccc(C)cc4)c3=O)cc2)cc1,23,31
COC(=O)C1=C(C)N(C)C(=O)NC1c1ccc(OC)cc1 (stereo not given),5,0
CC(C)CN1CCC1(C)C(=O)Nc1cccc(Oc2ccccc2)c1 (stereo not given),7,-1
O=C(CCc1nnc(Cc2cccc(C(F)(F)F)c2)o1)NC1CC1,2,1
CC(=O)NCC(=O)N(C)Cc1cn[nH]c1-c1ccc(F)cc1,1,-2
Cc1ccc(S(=O)(=O)N2CCN(CC(=O)Nc3ccc(N4CCCC4)cc3C)CC2)cc1,2,1
COc1ccc(C2NCCc3c2[nH]c2ccccc32)cc1OC (stereo not given),3,0
O=C(CSc1nc2c(cnn2Cc2ccccc2)c(=O)[nH]1)NCC1CCCO1 (stereo not given),0,-1
CN(C)C(=O)c1ccc(CNc2c(Cl)cccc2C#N)cc1,10,7
CCS(=O)(=O)Oc1cccc(CN(CC2CCCO2)C(=O)c2cccc(F)c2)c1 (stereo not given),8,17
Cc1nccc(-c2ccccc2)c1C(=O)N1CCC2(CN(C)C(=O)O2)C1 (stereo not given),-1,-3
O=C1CSC(CC(=O)NCCO)=N1,-5,13
CN1C(=CC(=O)COC(=O)C=Cc2cccc(F)c2)C(C)(C)c2ccccc21,4,1
CCCCCN(CC(=O)N(Cc1ccccc1)Cc1cccn1Cc1ccc(F)cc1)C(=O)c1ccc2c(c1)OCO2,0,14
Cc1ccc(NC(=O)N2CCC(O)(C(=O)O)CC2)cc1,4,-1
CCN1C(=O)N(CCN(C)C)C(=O)C12CCN(Cc1ccc(SC)cc1)CC2,24,19
CN(Cc1cc(-c2ccccc2)n[nH]1)Cc1ncccc1C(=O)O,-1,-9
C=CCn1c(O)c(N=NC(=O)c2ccncc2)c2ccccc21,1,-4
CC1CC(N(C)CC(O)COc2ccc(C(F)(F)F)cc2)C(=O)O1 (stereo not given),-3,8

# (listing goes on)
SMILES,NPYLR7 ag,NPYLR7 ag max-min
Oc1ccc(C=Nn2cnn(Cc3ccccc3Cl)c2=S)c(O)c1,8,6
COc1cccc(C(=O)NCc2nnc(SCc3cccc(C)c3)n2-c2cc(Cl)ccc2Cl)c1,22,19
CN1CCc2[nH]nc(C(=O)N3CCCC(N4CCCC4)C3)c2C1 (stereo not given),4,2
Cc1nn2c3c(cnc2c1-c1ccccc1)C(=O)CC(c1ccco1)C3 (stereo not given),17,8
O=C(O)c1cc(-c2ccc(O)cc2)n[nH]1,-3,-4
Cc1ccc(NC(=O)c2cc(Cl)sc2Cl)c(CN(C)C)c1,6,4
Cn1cc(I)c(C(=O)NNC(=O)COc2ccc3c(c2)OCO3)n1,4,15
O=C(NCCSCc1ccccc1)C1(c2ccccc2)CCC1,-2,-4
CC(C)(C)c1ccc(C(=O)NC2(C(F)(F)F)NC(=O)N(C3CCCCC3)C2=O)cc1 (stereo not given),5,5
CCC1CCCCN1CN1C(=O)c2cc(Cl)c(Cl)cc2C1=O (stereo not given),2,2
O=C(NCc1ccco1)c1cnn(-c2cccc(F)c2)c1C(F)(F)F,-1,5
COc1ccc(-c2nnc(SCC(=O)N3CCCC3)n2-c2ccc(C)cc2)cc1,8,15
Cc1nc(C(C)n2cc(-c3sccc3C)nn2)cs1 (stereo not given),24,9
CCn1cc(C(=O)N2CCN(CC(N)=O)CC2)c2nn(-c3ccccc3)c(=O)c-2c1,-2,-9
Cc1cccc(CN2CCC(CNC(=O)Cc3ccn(C)c3)C2)c1 (stereo not given),4,0
COCCCN(CC(=O)N(Cc1cccn1Cc1ccccc1Cl)CC(C)C)C(=O)COCc1ccccc1,-11,-11
COc1cccc(NC(=O)CN(C)C2CC(=O)N(Cc3ccc(Cl)cc3)C2=O)c1 (stereo not given),6,1
COc1ccc2nc(SC(C)c3nc(C)no3)[nH]c2c1 (stereo not given),10,7
Cc1ccc2nc(-c3ccccc3C)c(NC(=O)CC(C)C)n2c1,-6,-5
COc1cc(/C=C2/SC(=Nc3ccccc3)NC2=O)cc(OC)c1OC,-7,-13

# One compound at a time, as listed above. Order of screens: NPYLR7 ag | NPYLR7 ag max-min
# Results for O=C(NCc1ccco1)c1cnn(-c2cccc(F)c2)c1C(F)(F)F → -1 | 5
# Results for CC(C)(C)c1ccc(C(=O)NC2(C(F)(F)F)NC(=O)N(C3CCCCC3)C2=O)cc1 (stereo not given) → 5 | 5
# Results for Oc1ccc(C=Nn2cnn(Cc3ccccc3Cl)c2=S)c(O)c1 → 8 | 6
# Results for COc1ccc(-c2nnc(SCC(=O)N3CCCC3)n2-c2ccc(C)cc2)cc1 → 8 | 15
# Results for O=C(O)c1cc(-c2ccc(O)cc2)n[nH]1 → -3 | -4
